Mtb hypoxia inh = reduces hypoxia-regulated biosensor signal in M. tuberculosis. AID 1159583. hit rate 0.1% among 300,000. M. tuberculosis hypoxia-regulated fluorescent reporter, fluorescence. fluorescence inhibition, % (concentration not given with the values);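 active means 35 to 45% if threefold the growth effect, above 45% if 1.5-fold the growth effect; inactive means the rest, general growth blockers included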;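 further: wells of about 50 µL received 100 nL stock; 0% = vehicle wells and 100% = reference inhibitor wells; whole bacteria with a GFP reporter of the hypoxia response; strong numbers were not always called active; many hits fall short of the cut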
Bead autofluor = compound fluorescence in toxin protease inhibitor counterscreen. compound autofluorescence counterscreen, microsphere flow cytometry; hits give high values. hit rate 3.1% among 360,000. fluorescence intensity (concentration not given with the values);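 active means at least 3 SD above the mean of all compounds, about 16000 in these data; inconclusive means too few beads counted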;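 further: 100 nL of 1 mM stock went into each well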
ugtP null kill = compounds lethal to S. aureus RN4220 ugtP deletion mutant; OD600 growth, 16 h; some inactives read as strong as hits; AID 1259309; growth inhibition, % (concentration not given with the values); hit rate 0.54% among 330,000;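 active means z-score under -3 and OD600 up to 0.15 on both plates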;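 further: plate controls were untreated wells for no effect and antibiotic for full effect; wells of about 80 µL received 100 nL stock; the first replicate is given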
BJeLR lethal = BJeLR cell viability loss. BJeLR (HRASV12) viability, CellTiter-Glo ATP luminescence, 48 h; reference of the scale not given here. inhibition, % (test concentration not listed). hit rate 0.17% among 300,000;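 active means replicate mean above 50%; inconclusive means above 50% but judged a plate artefact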;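 further: 50 nL library stock added to about 25 µL; numbers are from one replicate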
PrP UTR inh = inhibition of PrP 5' UTR reporter expression; cell-based PrP 5' UTR mRNA reporter, plate reader; inhibition, % (concentration not given with the values); hit rate 0.35% among 340,000;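 active means every replicate at 50% or more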;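 further: 0 = median of the neutral control wells; tested in H4 reporter cells; numbers are from one replicate; inactives centre near -14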
RN4220 kill = kills Staphylococcus aureus RN4220; S. aureus RN4220 growth, OD600, 16 h; inhibition, % (no concentration beside the values); hit rate 0.33% among 330,000; AID 1259311;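 active means z-score of -3 or lower and OD600 up to 0.18 on both plates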;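 further: plate controls were untreated cells for no effect and reference antibiotic for full effect; stock transfer was 100 nL into about 80 µL; one replicate is shown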
Mtb hypoxia inh growth = second read-out of Mtb hypoxia inh, no call of its own (marks repeat the call); growth inhibition, %; measured here: M. tuberculosis growth (absorbance);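 0% = vehicle and 100% = reference antibiotic; read after six days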
An asterisk follows results filed as active; ? = inconclusive; . = not tested or not shown; & = joins results of further samples.

SMILES	Mtb hypoxia inh	Mtb hypoxia inh growth	Bead autofluor	ugtP null kill	BJeLR lethal	PrP UTR inh	RN4220 kill
CCN(C(=O)c1cccc(S(=O)(=O)N2CCc3ccccc32)c1)C1CCS(=O)(=O)C1 (stereo unspecified)	5	4	6086	3	.	-13	4.6
CCCCCC[C@@H]([C@@H](C)O)n1cnc2c(N)ncnc21	.	.	5015	.	5	-14	.
CCn1cnc2c1c(=O)n(Cc1cccc(Br)c1)c(=O)n2Cc1ccccc1	1	6	5385	17	5	-4	-6.2
CSc1ncccc1C(=O)OCC(=O)c1cccs1	7	3	2445	9	-8	1	5.6
O=[N+]([O-])c1c(Nc2ccccc2O)cc(Cl)c2nonc12	13	-3	3642	87	3	-23	98*
CC1(C)CC(=O)C(C=NCCN2CCOCC2)=C(O)C1	5	8	10795	13	-11	-31	4.3
COC(=O)c1cc2sccc2n1Cc1ccc(C)cc1	-2	-7	24673*	80	5	-12	-3.3
COC(=O)/C(C#N)=C/c1c(Oc2cccc(C)c2C)nc2ccccn2c1=O	15	3	3950	5	-6	-24	3.5
CC(=O)c1c(C)[nH]c(C(=O)OCC(=O)Nc2c(C)n(C)n(-c3ccccc3)c2=O)c1C	12	1	5512	8	.	-2	2.0
CCOC(CCNC(=O)c1cc(-c2cccs2)nc2ccccc12)OCC	-17	13	3549	-1	7	-12	-1.1
CCNC(=O)COC(=O)C1CCN(S(=O)(=O)c2ccc3c(c2)OCCO3)CC1	3	3	5605	-4	-8	-15	2.7
CN(C)c1ccc(P(=O)(OC2CCCCC2)C(O)c2ccncc2)cc1 (stereo unspecified)	4	10	3232	9	-8	-17	3.8
CC1=CCC(Cc2nc3ccccc3o2)C1(C)C (stereo unspecified)	2	2	9247	8	-2	-29	7.0
COc1cc(C(=O)NCCNC(=O)c2cc(OC)c(C)c(OC)c2)cc(OC)c1C	5	2	5161	-4	3	-15	-0.1
O=S(=O)(c1ccc(Cl)c(NC(=S)NN=Cc2c(F)cccc2F)c1)N1CCOCC1	-4	1	.	-1	.	.	4.4
CCOc1cc(/C=C(/NC(C)=O)C(=O)O)cc(Cl)c1OCc1cccc(Br)c1	1	5	4584	10	0	-27	4.9
Cc1cccc(Cl)c1NC(=S)NCCc1ccccn1	12	2	5629	4	-12	-67	2.5
COc1ccc(C(=O)NC(=S)Nc2cccnc2)cc1Cl	2	-2	3148	9	-4	-2	5.1
C/C(N)=C(/C#N)C(=O)COC(=O)Cc1coc2ccc3ccccc3c12	2	0	3982	1	-5	-6	2.0
CC(C)(C)OC(=O)CC1CC=CCC(CC(=O)N(CCO)Cc2ccccc2)C(=O)NCC(c2ccccc2)OC1=O (stereo unspecified)	5&-3&6&11&0&3&4	6&16&16&7&6&5&9	.	5&-3&10&5&-7&-4&9	.	.	3.6&0.1&3.3&-2.0&6.5&4.0&2.2
NC(=O)c1nsc(C(=O)N(c2cccc(F)c2)C(C(=O)NCC2CCCO2)c2cccs2)c1N (stereo unspecified)	-1	-4	4795	10	0	-17	4.3
CCCc1cc(=O)oc2cc(OCC(=O)NCC3CCC(C(=O)O)CC3)ccc12 (stereo unspecified)	.	.	5194	5	-1	-15	0.4
CC[n+]1c(C)cc2c(sc3ccccc32)c1C	-2	2	4024	-12	.	-22	0.9
COc1ccc(N2CCN(CC(=O)c3ccc(O)c(C)c3O)CC2)cc1	-6	-3	5829	1	4	-22	-1.6
COc1ccccc1/C=C/C=NNC(=O)CCn1nnc2ccccc21	-7	-10	.	3	.	.	1.7
Following part.
SMILES	Mtb hypoxia inh	Mtb hypoxia inh growth	Bead autofluor	ugtP null kill	BJeLR lethal	PrP UTR inh	RN4220 kill
Cc1cccc(NC(=O)C2CCN(c3nccc(C)n3)CC2)c1	2	8	20388*	-4	-1	-29	6.1
CCn1c2ccccc2c2cc(C=NNC(=O)c3ccccc3)ccc21	3	-1	.	-10	.	.	-4.6
CC(C)OC(=O)CSc1nnc(-c2ccc(Cl)cc2Cl)n1N	2	1	22841*	4	4	9	4.0
CCOC(=O)N1CCN(CCC(=O)Nc2cc(OC)cc(OC)c2)CC1	6	3	2697	8	-4	-6	0.8
CCOC(=O)CNC(=O)CSc1nc(N)cc(N)n1	3	2	7142	3	-3	-24	2.2
CCSc1nnc(SCC(=O)NC2CCCCC2)s1	-4	-8	3797	1	.	3	-1.5
Cc1ccc(NC(=O)CN2C(=O)COc3ccc(S(=O)(=O)N4CCCC4)cc32)cc1C	-2	-6	4405	5	6	-4	0.8
CCN(CC)c1ccc(-c2n[nH]c(=S)n2-c2ccccc2C)cc1	6	13	3971	6	10	-26	2.7
O=C(c1ccc2c(c1)OCCO2)C1CCN(C(=O)Nc2ccccc2F)CC1	-2	-2	5683	-1	4	-21	2.1
OC(CN1CCN(c2ccccc2F)CC1)c1ccc(F)cc1 (stereo unspecified)	-4	-3	3902	7	-5	-2	1.4
COc1ccc(OC)c(NC(=O)COC(=O)CN2C(=O)NC3(CCCC3)C2=O)c1	6	6	8776	6	.	-18	6.3
CC1CC(C)CN(C(=O)C(C)N2CCN(S(=O)(=O)c3ccccc3F)CC2)C1 (stereo unspecified)	20	10	3907	-1	.	-18	4.4
CCC(C)[C@H](NC(=O)[C@@H]1Cc2c([nH]c3ccccc23)C2c3ccccc3C(=O)N21)C(=O)N1CCC[C@@H]1C(=O)O (stereo partly specified)	.	.	5507	-10	-3	-12	8.5
Cn1c(=O)c2c(nc(N3CCCCC3)n2CCNC2=NCCC2)n(C)c1=O	.	.	2452	-1	-4	-5	0.8
CSc1cc(-c2ccc(Cl)cc2)c(C(=O)N2CCCC2)s1	.	.	3170	-3	-4	-8	2.6
COc1ccc(-c2cn[nH]c2-c2ccc(OCC(=O)NN)cc2O)cc1OC	2	4	3682	4	3	-16	3.3
O=C(NN=Cc1cccnc1)c1ccco1	2	2	.	6	.	.	2.4
CCOP(=O)(OCC)C(NC(C)=O)C(=O)c1ccccc1 (stereo unspecified)	5	3	3339	-3	1	-6	5.0
CSc1ccccc1C(=O)N1CCC(CCC(=O)NC2CC2)CC1	13	-1	5823	8	3	-6	3.7
COc1ccc(N2CCN(C(=O)CCNC(=O)c3ccc(C(C)(C)C)cc3)CC2)cc1	6	2	4536	-2	-2	-38	7.1
CC1(c2ccccc2)NC(=O)N(CC(=O)NNC(=O)c2ccccc2F)C1=O (stereo unspecified)	1	3	?	3	.	-13	0.0
Cc1nnc(N/N=C/C2CC=CCC2)[nH]c1=O (stereo unspecified)	.	.	2584	.	3	-18	.
Cc1ccc(CCNC(=O)CS(=O)Cc2nc(-c3cccs3)oc2C)cc1 (stereo unspecified)	7	-2	3678	-6	4	-29	1.3
CCCCOc1cccc(/C=C(\C#N)C(=O)NC2CC2)c1	12	0	5327	-11	-2	-8	9.3
O=C(Nc1ccc(F)cc1F)Nc1csc2ccccc12	6	26	5277	-45	10	.	-3.2

Some entries already given, showing only ugtP null kill:
| structure | ugtP null kill |
| --- | --- |
| OC(CN1CCN(c2ccccc2F)CC1)c1ccc(F)cc1 (stereo unspecified) | 7 |
| COc1ccc(OC)c(NC(=O)COC(=O)CN2C(=O)NC3(CCCC3)C2=O)c1 | 6 |
| CC1CC(C)CN(C(=O)C(C)N2CCN(S(=O)(=O)c3ccccc3F)CC2)C1 (stereo unspecified) | -1 |

(list continues)
SMILES	Mtb hypoxia inh	Mtb hypoxia inh growth	Bead autofluor	ugtP null kill	BJeLR lethal	PrP UTR inh	RN4220 kill
Cc1cccc(C(=O)Nc2ccc(S(=O)(=O)Nc3nc(C)cc(C)n3)cc2)c1	18	8	4031	6	-2	-14	1.5
CNC(=O)NC(=O)COC(=O)/C=C/c1cccc(Br)c1	-6	9	4042	-10	-3	-15	-1.4
Cc1[nH]c2ccccc2c1C(=O)CN1CCCC1	3	3	8422	-4	-6	-23	1.4
O=C1c2ccccc2C(=O)C1c1nccc2ccccc12	.	.	2279	2	16	35	8.8
Cc1cccc(N=c2oc3cc(O)ccc3cc2C(N)=O)c1	7	6	4092	-22	1	-47	8.7
Cc1cccc(/C=N/n2c(C)nnc2C)c1	.	.	5531	.	-14	4	.
CCc1cc(=O)[nH]c(SCCc2ccccc2)n1	1	2	5327	0	-4	8	2.3
O=Cc1ccc(Sc2nnc(-c3ccccc3)o2)c([N+](=O)[O-])c1	4	13	19318*	26	-7	-14	-2.3
CNC(=O)C1(C)C=CCN1C(=O)c1ccccc1 (stereo unspecified)	6	-2	4063	1	1	-17	4.6
S=c1nc(-c2cccc(Cl)c2)[nH][nH]1	-10	-10	4213	-2	-10	-37	2.0
COc1ccccc1CNC(=O)Cn1c(=O)c2cccn2c2cccnc21	7	3	4026	14	-1	-17	3.4
Nc1nc(-c2ccco2)nn1C(=O)c1cccnc1	5	4	3341	-2	14	4	0.6
CC12C(=O)N(c3ccccc3C(=O)O)C(=O)C1C1C=CC2C1 (stereo unspecified)	2	3	2832	-1	-1	-14	0.5
CCOC(=O)c1cnc2c(-c3cccc(Br)c3)cnn2c1C	-1	6	1956	-2	4	-56	4.7
Cc1cccc(N2C(=O)C3CCCN3C2=S)c1 (stereo unspecified)	-1	-1	3193	0	2	-7	3.9
CN(C)CCNC(=S)Nc1ccccc1C(C)(C)C	12	11	4052	9	7	-22	6.1
O=c1[nH]n2c(C(F)(F)F)cc(C3CC3)nc2c1N=Nc1ccccc1	0	2	3807	8	6	-26	3.5
CC(Cn1nnc2ccccc21)C(=O)O (stereo unspecified)	-3	1	4597	4	2	-6	10
C=CCc1cccc(/C=N/c2ncn[nH]2)c1O	.	.	3143	.	0	-22	.
COCCCNC(=O)c1c(N)n(N=Cc2ccccn2)c2nc3ccccc3nc12	11	8	.	-16	.	.	13
CCOC(=O)C(C)Oc1ccccc1C1NC(=O)NC(C)=C1C(=O)Nc1ccc(C)c(C)c1 (stereo unspecified)	9	1	10827	-4	3	7	3.5
COc1ccc(OCc2nn[nH]n2)cc1	9	3	3349	4	-2	-7	0.1
OC(CN1CCCCC1)c1c[nH]c2ccccc12 (stereo unspecified)	-1	-11	3195	3	-5	3	-1.9
N#CCCN(C(=S)NC(=O)c1ccco1)c1ccccc1F	13	-1	4602	1	-3	-25	1.8
COc1ccc(-n2c(=S)[nH]c3cc(C(=O)Nc4ccccc4OC)ccc3c2=O)c(OC)c1	8	5	4012	5	-2	-12	-4.2
The listing continues.
SMILES	Mtb hypoxia inh	Mtb hypoxia inh growth	Bead autofluor	ugtP null kill	BJeLR lethal	PrP UTR inh	RN4220 kill
Nc1cccnc1Sc1cc(Cl)cc(Cl)c1	10	8	9122	-10	1	-29	4.4
CC(C#N)(NC(=O)CN1CCN(S(=O)(=O)c2ccccc2Cl)CC1)C1CC1 (stereo unspecified)	1	9	4122	1	.	-2	0.9
CC1(C)CN(C(=S)Nc2ccc(F)cc2F)C1=O	7	-3	3466	9	8	-26	-0.1
O=C(CCNC(=O)c1ccc(Br)cc1)NCC1COc2ccccc2O1 (stereo unspecified)	2	0	5458	1	-3	-3	0.8
COc1ccc(CNc2ccc(Br)cc2)cc1	5	4	3326	12	-5	-44	5.4
CCN(CC)S(=O)(=O)c1ccc(N2CCN(C)CC2)c(NC(=O)Nc2ccc(C)cc2)c1	0	5	3648	4	-12	-18	2.9
CC(C)(C)c1ccccc1NC(=O)Cn1c(=O)cnc2ccccc21	19	6	2302	1	-1	-14	0.0
CSc1nc(N)c2c(C)c(C)sc2n1	21	17	2434	5	-4	-12	13
COc1ccccc1C(=O)OCC(=O)c1ccc(CNC(C)=O)s1	19	25	2969	5	.	3	4.7
COc1ccc(C2=CC(c3sccc3C)n3nnnc3N2)cc1 (stereo unspecified)	.	.	3239	1	6	-73	2.4
O=C(COc1cc(F)ccc1[N+](=O)[O-])Nc1ccc2c(c1)OCO2	9	11	5993	4	.	-65	0.5
COc1cc(C)nc(Oc2ccc(=O)n(C)n2)n1	3	9	2494	-6	-1	-9	-4.7
O=C(Nc1ccccc1N1CCOCC1)c1ccccc1NS(=O)(=O)c1ccc(F)cc1	-4	-1	4597	-11	0	-15	5.7

Reprinted at random: 4 records from the list.
SMILES	Mtb hypoxia inh	Mtb hypoxia inh growth	Bead autofluor	ugtP null kill	BJeLR lethal	PrP UTR inh	RN4220 kill
O=C(Nc1ccccc1N1CCOCC1)c1ccccc1NS(=O)(=O)c1ccc(F)cc1	-4	-1	4597	-11	0	-15	5.7
O=C(CCNC(=O)c1ccc(Br)cc1)NCC1COc2ccccc2O1 (stereo unspecified)	2	0	5458	1	-3	-3	0.8
COc1cc(C)nc(Oc2ccc(=O)n(C)n2)n1	3	9	2494	-6	-1	-9	-4.7
COc1ccc(CNc2ccc(Br)cc2)cc1	5	4	3326	12	-5	-44	5.4

Assay outcomes from PubChem.
